Sa growth inh – S. aureus growth inhibition at 42 and 30 °C, primary screen, LtaS inhibitor project, RN4220, two temperatures. relative growth, % (concentration not given with the values). actives 0.53% (n = 170,000). AID 720641, 2013. OD600, 20 h, 42 °C; hits give low values;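 active = growth at 42 °C up to 50% and 20 or more points under that at 30 °C, or under 10% at both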;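 also: 300 nL library stock went into each well; scaled to the means of positive and negative controls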
GIV-Gai inh – inhibitors of GIV peptide binding to Galpha-i3, primary screen, biochemical, fluorescence polarization, FITC-GIV GBA peptide, rat Galphai3; Guanine nucleotide-binding protein G(i) subunit alpha-3 (Rattus norvegicus), P08753; AID 1224905, 2016; percent of control (FP), % (no concentration beside the values); actives 0.42% (n = 210,000); 90 min; hits give low values; scaled: aluminum fluoride 0%, vehicle 100%;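 active = replicate mean at 85% of control or lower, very high polarization wells dropped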;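 also: wells of about 15 µL received 100 nL stock; the first replicate is given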
Target sequence (P08753 whole entry, looked up): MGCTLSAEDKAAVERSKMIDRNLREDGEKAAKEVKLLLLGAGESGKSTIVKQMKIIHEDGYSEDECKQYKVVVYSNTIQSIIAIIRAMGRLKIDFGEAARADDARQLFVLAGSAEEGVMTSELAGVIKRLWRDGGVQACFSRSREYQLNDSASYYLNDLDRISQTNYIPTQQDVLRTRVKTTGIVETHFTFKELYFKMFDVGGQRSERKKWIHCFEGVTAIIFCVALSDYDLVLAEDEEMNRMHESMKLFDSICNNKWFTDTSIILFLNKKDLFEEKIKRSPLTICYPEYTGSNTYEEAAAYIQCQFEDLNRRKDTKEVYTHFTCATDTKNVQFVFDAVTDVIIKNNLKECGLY
HCMV NEC inh – inhibitors of HCMV UL50-UL53 interaction, biochemical, HTRF; HCMV UL50-UL53 nuclear egress complex (human cytomegalovirus); inhibition, % (test concentration not listed); normalized percent inhibition; actives 0.15% (n = 190,000);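 active = both replicates at 50% or more, plus weaker picks with an unusually low signal ratio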;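 also: stock transfer was 100 nL into about 20 µL; 0% = negative control wells and 100% = wells with untagged competitor protein; inactives centre near -12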
Sa growth inh second temp – also measured in Sa growth inh; calls as there; relative growth, %; measured here: growth at 30 °C;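 optical density after 20 h as mean of two plates; 100% = untreated growth and lower means inhibition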
Numbers without * were called inactive; & = joins results of further samples. Outcome played no part in choosing rows; about 0.83% have a hit in one of these screens.

Results for Cc1cc(C(=O)CN(CC2CCCO2)C2CCS(=O)(=O)C2)c(C)n1C (configuration not stated) ?
Sa growth inh: 126; HCMV NEC inh: -15; Sa growth inh second temp: 77

Results for Cc1ccc(CN2CCC(CNC(=O)Cn3ncc4c([nH]c5ccccc54)c3=O)C2)cc1 (configuration not stated) ?
Sa growth inh: 110; GIV-Gai inh: 116; HCMV NEC inh: -12; Sa growth inh second temp: 102

How did CCn1c(=O)c(-c2noc(CCC(=O)Nc3cc(Cl)ccc3OC)n2)nn(-c2ccccc2)c1=O do in these assays?
GIV-Gai inh: 103; HCMV NEC inh: -42

Results for Cc1cc(NC(=O)c2ccc(Cl)c(Cl)c2)ccc1-c1cc2ccccc2oc1=O ?
Sa growth inh: 91; GIV-Gai inh: 99; HCMV NEC inh: -18; Sa growth inh second temp: 90

How did COc1nc2ccccc2nc1CCC(=O)N1CCCC1 do in these assays?
Sa growth inh: 96; GIV-Gai inh: 104; HCMV NEC inh: -66; Sa growth inh second temp: 96

Results for CCOc1c(C)cc(-c2ncccc2O)cc1C ?
Sa growth inh: 104; GIV-Gai inh: 105; HCMV NEC inh: -52; Sa growth inh second temp: 74

How did O=C(NCC(c1cccnc1)c1c[nH]c2ccccc12)Nc1cccc(F)c1 (configuration not stated) do in these assays?
GIV-Gai inh: 103; HCMV NEC inh: 7

What do the screens show for `Fc1ccccc1CSc1nnc2ccc(-c3ccco3)nn12`?
Sa growth inh: 98; GIV-Gai inh: 109; HCMV NEC inh: -50; Sa growth inh second temp: 84

How did COc1ccc(CN2C(=O)c3ccc(F)cc3C2=O)cc1 do in these assays?
Sa growth inh: 84; GIV-Gai inh: 103; Sa growth inh second temp: 86

What do the screens show for `COc1ccc(C(C2=C(O)CC(C)(C)CC2=O)c2c(C)[nH]c3ccccc23)cc1` (configuration not stated)?
Sa growth inh: 45; GIV-Gai inh: 115; Sa growth inh second temp: 31

How did CCOc1ccccc1NC(=S)NCc1cccn1C do in these assays?
Sa growth inh: 97; GIV-Gai inh: 97; Sa growth inh second temp: 86

Results for CC(=O)N(c1ccccc1)C1CC(C)N(C(=O)C(C)C)c2ccccc21 (configuration not stated) ?
Sa growth inh: 128; HCMV NEC inh: -3; Sa growth inh second temp: 101

What do the screens show for `O=C(c1ccccc1)N1CCN(CCc2ccncc2)CC1`?
Sa growth inh: 102; GIV-Gai inh: 98&98; HCMV NEC inh: -12&2; Sa growth inh second temp: 91

How did CCOc1ccc(-c2nnc(SCC(=O)Nc3cccc(C#N)c3)o2)cc1 do in these assays?
Sa growth inh: 104; GIV-Gai inh: 101; HCMV NEC inh: -10; Sa growth inh second temp: 70

Results for COc1cc(OC)c(NC(=O)CN2C(=O)CCn3nc(-c4cccn4C)cc32)cc1Cl ?
Sa growth inh: 85; GIV-Gai inh: 110&103; HCMV NEC inh: -14; Sa growth inh second temp: 92

How did CCCc1ccc(C(=O)N2CCOCC2)cc1 do in these assays?
Sa growth inh: 103; GIV-Gai inh: 104; HCMV NEC inh: -10; Sa growth inh second temp: 75

How did CCOc1nc(NC2CCCC2)nc(N2CCC(C)CC2)n1 do in these assays?
Sa growth inh: 123; GIV-Gai inh: 101; Sa growth inh second temp: 97

Results for Cc1ccc(N=Cc2ccc3ncccc3c2)c(Br)c1 ?
Sa growth inh: 91; HCMV NEC inh: -52; Sa growth inh second temp: 86

Results for CC(C)(C)C(=O)Nc1c(Cl)c(C2CC2)nn1-c1ccccc1 ?
Sa growth inh: 112; GIV-Gai inh: 104; HCMV NEC inh: 5; Sa growth inh second temp: 101

What do the screens show for `COc1cc(OC)c(NC(=O)N2CC=C(c3c[nH]c4ccccc34)CC2)cc1Cl`?
Sa growth inh: 125; GIV-Gai inh: 138; Sa growth inh second temp: 81

Results for O=C(c1ccco1)n1nc(-c2ccccc2)nc1NCc1ccc(F)cc1 ?
Sa growth inh: 88; GIV-Gai inh: 104; HCMV NEC inh: -8; Sa growth inh second temp: 89

What do the screens show for `CC1(C)C(c2ccccc2)=[N+]([O-])CN1O`?
Sa growth inh: 107; GIV-Gai inh: 97; HCMV NEC inh: -8; Sa growth inh second temp: 109

What do the screens show for `Cn1c(=O)c2c(ncn2CC(=O)Nc2cccc(C(F)(F)F)c2)n(C)c1=O`?
Sa growth inh: 102; GIV-Gai inh: 106; HCMV NEC inh: -22; Sa growth inh second temp: 76

How did COc1ccccc1/C=C/CN1CCN(Cc2ccccc2)CC1 do in these assays?
Sa growth inh: 106; GIV-Gai inh: 108; HCMV NEC inh: 3; Sa growth inh second temp: 102

How did CCCN1CCN(C(=O)c2c(C)nn(-c3ccccc3)c2Cl)CC1 do in these assays?
Sa growth inh: 102; HCMV NEC inh: -4; Sa growth inh second temp: 101

What do the screens show for `COC(=O)c1ccc(S(=O)(=O)NN2CCOCC2)n1C`?
Sa growth inh: 93; GIV-Gai inh: 102; HCMV NEC inh: -25; Sa growth inh second temp: 92

Results for CSc1ncccc1C(=O)NCc1ccc(F)cc1 ?
Sa growth inh: 109; GIV-Gai inh: 104; Sa growth inh second temp: 82

Results for Cc1noc(C)c1CSc1ncccc1C(=O)Nc1ccnn1C1CCCC1 ?
Sa growth inh: 95; HCMV NEC inh: -3; Sa growth inh second temp: 94

Results for O=S(=O)(c1ccc(OCC(O)CNC2CC2)c(Cl)c1)N1CCOCC1 (configuration not stated) ?
Sa growth inh: 102; HCMV NEC inh: 3; Sa growth inh second temp: 94

What do the screens show for `COc1ccc(CCNC(=O)c2c(C)cc(=O)oc2C)cc1OC`?
Sa growth inh: 102; GIV-Gai inh: 100; Sa growth inh second temp: 83

Results for O=C(Cn1cc(/C=N/NC(=O)c2ccc(Oc3ccc(O)cc3)cc2)c2ccccc21)NCc1ccco1 ?
Sa growth inh: 127; GIV-Gai inh: 102; HCMV NEC inh: -44; Sa growth inh second temp: 87

Results for Cc1noc(C)c1COc1cccc(C(=O)NC2CCCCCC2)c1 ?
Sa growth inh: 87; HCMV NEC inh: -12; Sa growth inh second temp: 88

What do the screens show for `CCOC(=O)CCc1n[nH]c(=O)[nH]c1=O`?
Sa growth inh: 111; HCMV NEC inh: -18; Sa growth inh second temp: 85

How did CCc1ccccc1OCCSc1nnc(-c2cc(OC)c(OC)c(OC)c2)o1 do in these assays?
Sa growth inh: 100; GIV-Gai inh: 102; HCMV NEC inh: 14; Sa growth inh second temp: 87

What do the screens show for `COc1ccc(Cl)cc1NC(=O)CN1Cc2ccccc2C1=O`?
Sa growth inh: 98; GIV-Gai inh: 101; Sa growth inh second temp: 90

Results for CCCCCC(=O)Nc1ccc(NC(=O)c2cc3ccccc3o2)c(OC)c1 ?
Sa growth inh: 118; GIV-Gai inh: 103; HCMV NEC inh: -38; Sa growth inh second temp: 98

What do the screens show for `O=C(Nc1ncc(S(=O)(=O)c2ccc([N+](=O)[O-])cc2)s1)c1ccc(S(=O)(=O)N2CCc3ccccc32)cc1`?
GIV-Gai inh: 103; HCMV NEC inh: -41

How did COC(=O)c1cc(NC(=O)CN2C(=O)c3ccccc3C2=O)cc(C(=O)OC)c1 do in these assays?
Sa growth inh: 95; GIV-Gai inh: 106; HCMV NEC inh: -27; Sa growth inh second temp: 82

What do the screens show for `Cc1nn(CCCC(=O)N2CCc3ccccc3C2)c(=O)c2c1sc1ccccc12`?
GIV-Gai inh: 102; HCMV NEC inh: 5

What do the screens show for `COc1ccc(-c2cc(C(F)(F)F)nc(SCC(=O)NCCc3ccccc3)n2)cc1OC`?
Sa growth inh: 99; GIV-Gai inh: 108; HCMV NEC inh: -26; Sa growth inh second temp: 85

How did COc1ccc(OCC(O)CC(=O)O)cc1 (configuration not stated) do in these assays?
Sa growth inh: 89; GIV-Gai inh: 99; HCMV NEC inh: 5; Sa growth inh second temp: 93

What do the screens show for `c1ccc(-c2nc3nc4c(c(N5CCN(C6CCCCC6)CC5)n3n2)CCCC4)cc1`?
GIV-Gai inh: 97; HCMV NEC inh: -6

What do the screens show for `Cc1nc2cc(Nc3ccncc3)ccc2s1`?
Sa growth inh: 97; GIV-Gai inh: 107; HCMV NEC inh: -14; Sa growth inh second temp: 102

How did O=C1CSCC(=O)N1Cc1ccc(Cl)c(Cl)c1 do in these assays?
GIV-Gai inh: 102; HCMV NEC inh: -16

Results for Cc1ccc(-n2c(SCCC(C)C)nc3sc4c(c3c2=O)CC(C)(C)OC4)cc1 ?
Sa growth inh: 104; GIV-Gai inh: 101; HCMV NEC inh: 5; Sa growth inh second temp: 97

Results for Cc1cccc(N2CC(C)Cn3c2nc2c3c(=O)n(CC(=O)O)c(=O)n2C)c1 (configuration not stated) ?
Sa growth inh: 100; GIV-Gai inh: 109; HCMV NEC inh: 11; Sa growth inh second temp: 103

What do the screens show for `Cc1nc(NCc2ccco2)[nH]c(=O)c1CCC(C)C`?
Sa growth inh: 60; GIV-Gai inh: 111; HCMV NEC inh: -8; Sa growth inh second temp: 28

Results for CS(=O)(=O)c1ccccc1C(=O)Nc1cccc2ncccc12 ?
Sa growth inh: 114; HCMV NEC inh: -26; Sa growth inh second temp: 97

What do the screens show for `CCc1nn(CC(=O)N2CCCCCC2)c(=O)c2cc3sccc3n12`?
Sa growth inh: 120; GIV-Gai inh: 104; HCMV NEC inh: -4; Sa growth inh second temp: 86

How did CN(C)/C=C1\C(=O)N(C)N=C1c1ccccc1O do in these assays?
Sa growth inh: 90; GIV-Gai inh: 96; HCMV NEC inh: -9; Sa growth inh second temp: 84

What do the screens show for `C=Cc1ccc(Cn2c(C)c(CNCCc3ccc(OCC)cc3)c(C(=O)O)c2C)cc1`?
Sa growth inh: 90; GIV-Gai inh: 104; HCMV NEC inh: -12; Sa growth inh second temp: 61

Results for COc1cc(NC(=O)CN2C(=O)C(c3ccc(C)cc3)=NC23CCCCCC3)cc(OC)c1 ?
Sa growth inh: 117; GIV-Gai inh: 106; HCMV NEC inh: -10; Sa growth inh second temp: 94

Results for Cc1ccc(S(=O)(=O)NC(=O)NCC2CCCO2)cc1 (configuration not stated) ?
Sa growth inh: 84; HCMV NEC inh: -2; Sa growth inh second temp: 96

Results for c1ccc(-c2noc(-c3cccnc3N3CCOCC3)n2)cc1 ?
GIV-Gai inh: 99; HCMV NEC inh: -25

How did O=C(NCCc1ccccc1)C1C2C=CC3(CN(Cc4cccs4)C(=O)C13)O2 (configuration not stated) do in these assays?
Sa growth inh: 95; GIV-Gai inh: 100; HCMV NEC inh: -3; Sa growth inh second temp: 92

What do the screens show for `COc1ccc(C)cc1NC(=O)CN1N=NC2C(=O)N(c3ccc(Br)cc3)C(=O)C21` (configuration not stated)?
GIV-Gai inh: 106; HCMV NEC inh: 14

What do the screens show for `CCCn1c(SCC(=O)NCCc2ccccc2)nc2c(oc3ccccc32)c1=O`?
Sa growth inh: 86; GIV-Gai inh: 100; HCMV NEC inh: -23; Sa growth inh second temp: 89

Results for CNc1nc2c(c(=O)n(C)c(=O)n2C)n1CC(O)COc1ccccc1C (configuration not stated) ?
Sa growth inh: 88; GIV-Gai inh: 101; HCMV NEC inh: -9; Sa growth inh second temp: 69

How did COc1ccc(NC(=O)/C=C/C(=O)O)cc1OC do in these assays?
Sa growth inh: 101; GIV-Gai inh: 102; HCMV NEC inh: -7; Sa growth inh second temp: 95

Results for COc1cc(OC)c2c(c1)ncc1c(C)nn(-c3ccccc3)c12 ?
Sa growth inh: 107; GIV-Gai inh: 104; Sa growth inh second temp: 73

Results for Cc1ccc(-c2nc3c4ccccc4n(CC(=O)N4CCN(c5ccccc5F)CC4)c(=O)n3n2)cc1 ?
Sa growth inh: 118; GIV-Gai inh: 98; Sa growth inh second temp: 96

Quoted from above (nine entries):
Results for Cc1cccc(N2CC(C)Cn3c2nc2c3c(=O)n(CC(=O)O)c(=O)n2C)c1 (configuration not stated) ?
Sa growth inh: 100; GIV-Gai inh: 109; HCMV NEC inh: 11; Sa growth inh second temp: 103

What do the screens show for `Cc1nc(NCc2ccco2)[nH]c(=O)c1CCC(C)C`?
Sa growth inh: 60; GIV-Gai inh: 111; HCMV NEC inh: -8; Sa growth inh second temp: 28

Results for CS(=O)(=O)c1ccccc1C(=O)Nc1cccc2ncccc12 ?
Sa growth inh: 114; HCMV NEC inh: -26; Sa growth inh second temp: 97

What do the screens show for `CCc1nn(CC(=O)N2CCCCCC2)c(=O)c2cc3sccc3n12`?
Sa growth inh: 120; GIV-Gai inh: 104; HCMV NEC inh: -4; Sa growth inh second temp: 86

How did CN(C)/C=C1\C(=O)N(C)N=C1c1ccccc1O do in these assays?
Sa growth inh: 90; GIV-Gai inh: 96; HCMV NEC inh: -9; Sa growth inh second temp: 84

What do the screens show for `C=Cc1ccc(Cn2c(C)c(CNCCc3ccc(OCC)cc3)c(C(=O)O)c2C)cc1`?
Sa growth inh: 90; GIV-Gai inh: 104; HCMV NEC inh: -12; Sa growth inh second temp: 61

Results for COc1cc(NC(=O)CN2C(=O)C(c3ccc(C)cc3)=NC23CCCCCC3)cc(OC)c1 ?
Sa growth inh: 117; GIV-Gai inh: 106; HCMV NEC inh: -10; Sa growth inh second temp: 94

Results for Cc1ccc(S(=O)(=O)NC(=O)NCC2CCCO2)cc1 (configuration not stated) ?
Sa growth inh: 84; HCMV NEC inh: -2; Sa growth inh second temp: 96

Results for c1ccc(-c2noc(-c3cccnc3N3CCOCC3)n2)cc1 ?
GIV-Gai inh: 99; HCMV NEC inh: -25
